Rce1 inhib = inhibitors of yeast Ras-converting enzyme; AID 2563; yeast membranes, quenched prenylated peptide cleavage fluorescence; 0.27% of 290,000 active; calls only; Q03530;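 active = fall in fluorescence gain of 50% or more versus controls, with final raw signal at or below 3038400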;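 also: plate controls were neutral control wells for no effect and wells lacking membranes for full effect; tested at 10 µM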
Target sequence (Q03530 whole entry, looked up): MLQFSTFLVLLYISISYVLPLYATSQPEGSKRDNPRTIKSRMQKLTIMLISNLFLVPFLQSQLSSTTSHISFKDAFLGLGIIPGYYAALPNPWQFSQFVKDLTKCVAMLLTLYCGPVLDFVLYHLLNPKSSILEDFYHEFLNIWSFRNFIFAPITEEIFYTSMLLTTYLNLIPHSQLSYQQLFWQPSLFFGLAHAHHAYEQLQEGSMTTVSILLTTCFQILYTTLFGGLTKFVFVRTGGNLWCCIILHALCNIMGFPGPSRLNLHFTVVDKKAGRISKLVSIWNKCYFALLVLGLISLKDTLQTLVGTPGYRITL
eIF4H FP inh = inhibitors of RNA binding by human eIF4H | inhibition, % at 35 µM | 0.94% of 290,000 active | AID 2012 | eIF4H fluorescence polarization binding assay;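 active = 50% or more with normal probe brightness, or confirmed in later tests; about a fifth of its hits are not listed in these tables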;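 also: calls also rest on retests at 20 µM and on dose response follow-up; 0% = protein and probe with vehicle and 100% = probe without protein; strong numbers were not always called active; many hits fall short of the cut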
PABP polyA inh = PABP-poly(A) binding inhibition. inhibition, % at 35 µM. PABP-poly(A) RNA binding, fluorescence polarization. 1% of 290,000 active;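 active = 50% or more with normal probe brightness, or confirmed in later tests; about a fifth of its hits are not listed in these tables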;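 also: calls also rest on retests at 20 µM and on dose response follow-up; controls were probe without protein and protein plus probe with vehicle; some compounds called inactive have numbers as strong as hits; many hits fall short of the cut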
Target sequence (P11940 whole entry, looked up): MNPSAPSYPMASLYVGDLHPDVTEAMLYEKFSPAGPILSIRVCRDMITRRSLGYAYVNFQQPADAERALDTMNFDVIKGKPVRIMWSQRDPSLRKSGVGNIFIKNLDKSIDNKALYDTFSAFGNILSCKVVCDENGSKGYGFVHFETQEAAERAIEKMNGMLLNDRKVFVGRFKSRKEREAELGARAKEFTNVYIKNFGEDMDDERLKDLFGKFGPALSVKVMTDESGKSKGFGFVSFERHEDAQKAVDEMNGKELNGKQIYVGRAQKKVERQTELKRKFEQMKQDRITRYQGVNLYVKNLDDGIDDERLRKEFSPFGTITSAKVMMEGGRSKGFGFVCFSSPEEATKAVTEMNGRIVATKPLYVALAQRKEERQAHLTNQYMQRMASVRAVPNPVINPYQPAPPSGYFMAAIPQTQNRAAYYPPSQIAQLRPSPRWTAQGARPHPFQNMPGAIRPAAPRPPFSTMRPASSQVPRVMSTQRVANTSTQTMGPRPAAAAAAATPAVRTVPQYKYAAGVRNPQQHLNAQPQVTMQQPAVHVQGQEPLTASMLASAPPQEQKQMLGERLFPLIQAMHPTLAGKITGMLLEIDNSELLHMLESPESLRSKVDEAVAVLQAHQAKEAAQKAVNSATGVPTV
Yeast UUG start = alters start codon recognition fidelity in yeast | activity score, % at 18.7 µM | 0.13% of 350,000 active | AID 602363 | S. cerevisiae UUG-firefly luciferase reporter, luminescence/redox ratio;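 active = replicate mean at a twofold rise or more, about +100% in these data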;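 also: firefly luciferase made from a UUG start codon reports start codon fidelity; reporter light over untreated wells divided by growth signal over untreated wells; some hits fall short of that in this replicate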
CSC inhib = cancer stem cell inhibition | cancer stem cell-like cells viability, luminescence | inhibition, % at 7.5 µM | 1.1% of 300,000 active | AID 2717;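 active = mean at 75% or more and at least half the replicates too; tested in HMLE shEcad cells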;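 also: 0% = median of negative and 100% = median of positive control wells; the first replicate is given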
Env fusion inh = inhibitors of HIV Env-mediated cell fusion; HeLa-JRFL Env/CEM21 cell fusion, luciferase; 1.1% of 360,000 active; inhibition, % at 12.3 µM; AID 651610;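 active = mean replicate inhibition score of at least 50 and every replicate individually at or above 50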;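 also: 0% = plate neutral controls and 100% = maraviroc near 300 nM; one replicate is shown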
MT1-MMP act inh = MT1-MMP (human) activation inhibition. HT1080 RFP-PRO-GFP cells, GFP/RFP ratio fluorescence, overnight; percent of plate control window, DMSO zero. GFP/RFP ratio change, % at 20 µM. 0.061% of 360,000 active;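 active = GFP/RFP ratio change of at least 30% with cell ATP level not reduced by more than half and red fluorescence within 50% of control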; also: strong numbers were not always called active
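Assay system – RFP-PRO-GFP reporter HT1080 cells · Compound dosing – single dose of 20 µM compound, 1% DMSO final · Incubation – overnight compound exposure at 37 °C · Measure – GFP/RFP fluorescence ratio · Benchmarks – DMSO wells and RFP-L50D-GFP cells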
MT1-MMP act inh RFP = second read-out of MT1-MMP act inh, no call of its own (marks repeat the call); RFP signal change, %; measured here: RFP expression control read;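 0 = vehicle wells; hits needed this value within 50% of zero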
Active calls of the source: *; i = inactive; x = not tested or not shown. Compounds as they come (roughly 2.9% active in at least one column).

SMILES | Rce1 inhib | eIF4H FP inh | PABP polyA inh | Yeast UUG start | CSC inhib | Env fusion inh | MT1-MMP act inh | MT1-MMP act inh RFP
Cc1ccc2c(C)c(C(=O)N3CCC(N4CCC(C(=O)NC5CC5)CC4)CC3)oc2c1 | i | 4 | -16 | -4 | x | -3 | -3 | -2
CCOc1cc2nc(-c3ccc(OC)c(OC)c3)nc(N3CCOCC3)c2cc1OC | i | -12 | -10 | x | 13 | x | x | x
O=S(=O)(NCc1ccccc1)c1ccc(S(=O)(=O)NCC2CCCO2)cc1 (configuration not stated) | i | 2 | 12 | x | -2 | -13 | 0 | -5
CCOP(=O)(OCC)c1nc(-c2ccc(Br)cc2)oc1N1CCCCC1 | i | -8 | -5 | 23 | 8 | 7 | -8 | -7
O=C1CNC(=S)N1C1CCCCCC1 | i | -10 | -4 | 9 | -18 | 5 | -1 | 6
O=C(O)CC1(CC(=O)Nc2ccc3c(c2)OCCCO3)CCCCC1 | i | -20 | 6 | x | 23 | 9 | -3 | 2
COC(=O)c1ccc(-c2nc(-c3ccc(Br)o3)no2)cc1 | i | -11 | -2 | -18 | x | -12 | 0 | 1
O=C(Nc1ccc2c(c1)OCCO2)C1CCN(c2cnccn2)CC1 | i | -5 | -4 | -12 | 2 | -17 | -2 | -2
CC(=O)NC(Cc1cccc(F)c1)C(=O)NC1CCN(C(=O)Nc2ccc(C)cc2)CC1 (configuration not stated) | i | 3 | 12 | 4 | -9 | -9 | 2 | 3
COc1ccccc1CC(=O)N1CCCc2cc(C)ccc21 | i | 1 | 4 | 3 | -9 | -12 | -3 | -3
COc1cc(NC(=O)CN(C)S(=O)(=O)c2ccc3nc(C)sc3c2)cc(OC)c1 | i | 3 | -14 | -10 | 8 | 10 | 0 | -3
N#Cc1cccc(NC(=O)c2cc(C3CCCCN3C(=O)CCc3ccccc3)on2)c1 (configuration not stated) | x | x | x | -21 | x | -16 | 0 | -6
Cc1ccc(CCc2nnc(SCC(=O)Nc3cc(Cl)ccc3Cl)n2-c2ccccc2)o1 | i | -6 | -1 | x | 57 | 33 | -6 | -5
Cc1ccc(OCC(=O)Nc2ccc(-c3nc4ncccc4o3)cc2)cc1 | i | 17 | -13 | 0 | 18 | -62 | 16 | 7
Cc1oc(-c2ccc(Cl)cc2)nc1CSCC(=O)NCCCN1CCOCC1 | i | -3 | 6 | -5 | -8 | 12 | 11 | -7
NC(=O)c1ccccc1NC(=O)Nc1ccccc1Cl | i | 0 | -9 | x | -4 | 19 | 2 | -4
Cc1[nH]c2c(C)cccc2c1CCNS(=O)(=O)c1cccc([N+](=O)[O-])c1 | i | -3 | 6 | x | -7 | 0 | 2 | 0
CC(C)=CCN1CCN(Cc2c[nH]c3ccccc23)CC1CCO (configuration not stated) | i | -16 | 3 | -4 | 3 | -7 | -10 | 1
COc1ccc(CCN2CC(C(=O)NCc3cc(C)on3)CCC2=O)cc1 (configuration not stated) | i | -8 | -3 | -15 | x | 8 | 3 | -2
CC(O)(c1ccccc1)c1nc(-c2ccc(Cl)cc2)cs1 (configuration not stated) | x | x | x | -15 | x | 6 | 11 | -6
Cc1ccc2oc(C(=O)NCc3ccc(S(N)(=O)=O)cc3)cc(=O)c2c1 | i | -5 | 4 | -5 | 3 | 19 | 0 | -2
CCOC(=O)c1cnc(SCC(C)C)nc1N | i | -10 | 6 | -20 | 5 | -182 | -3 | -3
C[C@H](NS(=O)(=O)c1ccc(Cl)cc1)C(=O)OCC(=O)c1ccc[nH]1 | i | -1 | 4 | -13 | -4 | 6 | 1 | 2
COc1cc(C(=O)O)nc2ccccc12 | i | 3 | -8 | -6 | -8 | x | 10 | 5

Part of the list above, with tabs.
smiles	Rce1 inhib	eIF4H FP inh	PABP polyA inh	Yeast UUG start	CSC inhib	Env fusion inh	MT1-MMP act inh	MT1-MMP act inh RFP
Cc1ccc2c(C)c(C(=O)N3CCC(N4CCC(C(=O)NC5CC5)CC4)CC3)oc2c1	i	4	-16	-4	x	-3	-3	-2
CCOc1cc2nc(-c3ccc(OC)c(OC)c3)nc(N3CCOCC3)c2cc1OC	i	-12	-10	x	13	x	x	x
O=S(=O)(NCc1ccccc1)c1ccc(S(=O)(=O)NCC2CCCO2)cc1 (configuration not stated)	i	2	12	x	-2	-13	0	-5
CCOP(=O)(OCC)c1nc(-c2ccc(Br)cc2)oc1N1CCCCC1	i	-8	-5	23	8	7	-8	-7
O=C1CNC(=S)N1C1CCCCCC1	i	-10	-4	9	-18	5	-1	6
O=C(O)CC1(CC(=O)Nc2ccc3c(c2)OCCCO3)CCCCC1	i	-20	6	x	23	9	-3	2
COC(=O)c1ccc(-c2nc(-c3ccc(Br)o3)no2)cc1	i	-11	-2	-18	x	-12	0	1
O=C(Nc1ccc2c(c1)OCCO2)C1CCN(c2cnccn2)CC1	i	-5	-4	-12	2	-17	-2	-2
CC(=O)NC(Cc1cccc(F)c1)C(=O)NC1CCN(C(=O)Nc2ccc(C)cc2)CC1 (configuration not stated)	i	3	12	4	-9	-9	2	3
COc1ccccc1CC(=O)N1CCCc2cc(C)ccc21	i	1	4	3	-9	-12	-3	-3
COc1cc(NC(=O)CN(C)S(=O)(=O)c2ccc3nc(C)sc3c2)cc(OC)c1	i	3	-14	-10	8	10	0	-3
N#Cc1cccc(NC(=O)c2cc(C3CCCCN3C(=O)CCc3ccccc3)on2)c1 (configuration not stated)	x	x	x	-21	x	-16	0	-6
Cc1ccc(CCc2nnc(SCC(=O)Nc3cc(Cl)ccc3Cl)n2-c2ccccc2)o1	i	-6	-1	x	57	33	-6	-5
Cc1ccc(OCC(=O)Nc2ccc(-c3nc4ncccc4o3)cc2)cc1	i	17	-13	0	18	-62	16	7

New compounds follow:
SMILES | Rce1 inhib | eIF4H FP inh | PABP polyA inh | Yeast UUG start | CSC inhib | Env fusion inh | MT1-MMP act inh | MT1-MMP act inh RFP
Cc1ccc(NC(=O)c2ccc(C#CC3(O)CCCCC3)cc2)cc1C | x | 4 | 8 | x | x | x | -2 | -4
O=C(O)C1Cn2c(nc3c(c2=O)C2(CCCC2)Cc2ccccc2-3)S1 (configuration not stated) | i | -8 | 10 | 5 | -2 | -1 | -1 | 1
CCC(=O)NC(c1ccccc1)c1nc2ccccc2[nH]1 (configuration not stated) | i | -2 | 11 | -12 | -7 | -19 | -3 | 4
CCS(=O)(=O)N1CCCC(C(=O)NCc2ccc3c(c2)OCO3)C1 (configuration not stated) | i | -5 | -7 | -18 | 0 | x | -1 | 1
CC(=O)C1=C(C)OC(N)=C(C#N)C1c1cccc([N+](=O)[O-])c1 (configuration not stated) | i | 0 | 10 | x | 11 | 1 | -3 | -1
COc1cc2cc(C(=O)N/N=C/c3cccc(OC)c3OC)[nH]c2cc1OC | i | -8 | 5 | 2 | 9 | 20 | 11 | 0
O=C(Nc1ccc(C(O)c2ccccc2)cc1)[C@@H]1O[C@H](CO)[C@H](O)[C@H](O)[C@H]1O (some centres not stated) | x | x | x | -5 | x | -3 | 2 | -3
CCCn1c(N)c(N(CCOC)C(=O)c2cccc(C(F)(F)F)c2)c(=O)[nH]c1=O | i | -2 | -12 | -18 | -15 | -1 | 1 | 8
Cn1c(=O)oc2cc(S(=O)(=O)NCCC(=O)N3CC=C(c4ccccc4)CC3)ccc21 | i | -4 | -11 | -1 | 0 | -12 | -8 | -15
COc1cccc(NC(=O)c2ccc3c(c2)CCN3S(C)(=O)=O)c1 | i | 0 | -4 | -19 | 0 | -22 | 0 | 2
Cc1ccc(NC(=O)CSCC(=O)N(C)CC(=O)Nc2ccccc2C(F)(F)F)cc1 | x | x | x | 10 | x | -11 | 0 | -1
CN(C(=O)CN1C(=O)/C(=C/c2ccccc2F)SC1=S)C1CCS(=O)(=O)C1 (configuration not stated) | i | -4 | 9 | -11 | 14 | -1 | 1 | 1
COc1ccc([C@H]2CC(=O)C=C(c3cc(F)ccc3F)C2)cc1OC | x | x | x | -2 | 5 | 8 | 3 | -11
Cc1cccc(C)c1NC(=O)CN(C)C(=O)CN1C(=O)NC2(CCCC2)C1=O | i | x | x | x | -17 | -3 | 2 | 5
CCC(=O)Nc1ccc(S(=O)(=O)N2CCCCC2)cc1OC | x | -11 | -9 | 3 | x | 2 | 5 | 2
Cc1ccc(C(=O)C(C)OC(=O)Cc2n[nH]c(=O)c3ccccc23)cc1C (configuration not stated) | i | x | x | -14 | x | x | 0 | -1
O=C(O)CC(c1ccccc1)c1ccccc1 | i | 0 | 2 | -12 | 3 | 11 | 4 | 6
O=C(NNS(=O)(=O)c1ccccc1)C1CCCCC1 | i | 4 | 4 | -13 | -7 | -33 | -1 | 0
O=C(CSc1nc(-c2ccc(F)cc2)cs1)N1CCc2ccccc21 | i | -3 | 6 | -8 | -3 | x | -2 | -5
COc1ccc(-c2c3c(=O)n(C)c(=O)n(C)c3cn2Cc2cccnc2)cc1 | i | 0 | 7 | -2 | 1 | x | -4 | -1
Cc1ccc(N2C(N)=C(C#N)C3(C(=O)N(C)c4ccccc43)C3=C2CC(C)(C)CC3=O)cc1Cl (configuration not stated) | i | -5 | -4 | x | 0 | x | 0 | -2
CC1(c2ccc3c(c2)OCCO3)NC(=O)N(CC(=O)Nc2c(F)cccc2F)C1=O (configuration not stated) | x | x | x | x | -12 | 1 | 2 | 3
Nc1ccccc1C(=O)N/N=C1/C2CN3CCN(C2)CC1(Cc1ccccc1)C3 | i | 14 | 16 | x | -5 | 2 | 1 | 8
COc1ccc(C(=O)N2CC(c3ccccc3)CC2=O)cc1 (configuration not stated) | i | -12 | 3 | x | -8 | -12 | 2 | 0
Oc1c(Br)cc(/C=N/Nc2nncc3ccccc23)cc1Br | i | -6 | 10 | x | 2 | x | x | x
CCNc1nc(Oc2ccc(=O)[nH]n2)nc(N2CCOCC2)n1 | i | -12 | 8 | -11 | 0 | -81 | 3 | 5
Cn1c(=O)c(=O)n(C)c2cc(S(=O)(=O)N3CCCC3C(=O)Nc3ccc(F)cc3)ccc21 (configuration not stated) | i | -3 | -2 | -2 | x | 7 | -4 | 1
CCOC(=O)c1sc(NC(=O)c2ccc(CC)s2)nc1C | i | -7 | -2 | -6 | 44 | -442 | 1 | 4
COc1ccccc1OCCc1nnc(N)s1 | i | -11 | 1 | 8 | -13 | x | -1 | -1
OCCN(Cc1ccccc1)Cc1cccc(Cl)c1Cl | i | -4 | 10 | x | x | x | -8 | -7
Cn1c(=O)c2cc(NC(=O)CCc3ccccc3)ccc2n1-c1ccccc1F | x | x | x | -15 | x | -15 | -7 | -11
COc1ccc(N2CCN(C(C)C(=O)N3CCCC3)CC2)cc1 (configuration not stated) | i | 11 | -5 | x | -1 | -8 | 4 | 6
CNC(=S)N1CCC(NC(=O)C(Cc2ccc(F)cc2)NC(C)=O)CC1 (configuration not stated) | i | 64* | 63* | x | -5 | 8 | -1 | 3
C=CCN=C1N[C@@H](c2ccccc2)C(C(=O)OC)=C(C)N1CCOC | i | -3 | 38 | 5 | 11 | 12 | -2 | 5
COc1cc(NC(=O)n2ncc3cc(Cl)ccc32)cc(OC)c1 | i | 6 | 13 | -20 | -2 | -24 | -5 | -3
Cc1ccnc(NC2(C(F)(F)F)N=C3SCCN3C2=O)c1 (configuration not stated) | i | -8 | -6 | x | -13 | 1 | 3 | 4
CNC(=O)c1[nH]cnc1C(=O)Nc1ccccc1OC | i | 4 | -1 | 7 | -3 | x | 9 | 9
COC(=O)C1CCN(CC(=O)Nc2ccc(OC)c(Cl)c2)CC1 | x | -2 | 0 | x | 0 | -8 | 1 | 2
